TsaE inh – displaces an ADP probe from E. coli YjeE (TsaE) | P0AF67 | purified YjeE, fluorescence polarisation of a bound ADP probe | Potency, µM | 71,000 compounds, 0.05% hits | AID 605; active = well fitted falling curve; inconclusive = weaker or top-dose-only fall, or a rising curve; inactive = flat or poorly fitted curve;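 note: top concentration of the series not given in the record; excess ADP was the control for the full effect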
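Purified YjeE (10 uM) with BODIPY Texas Red-labeled ADP probe (2 uM); compounds pin-transferred, 15 min at room temperature. Binding inhibition read as decreased fluorescence polarization; ADP titration as control.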
Bst PK mod – alters activity of Bacillus stearothermophilus pyruvate kinase; partly purified Bacillus stearothermophilus pyruvate kinase, luminescence ATP production; ribose 5-phosphate activator present at AC10; Potency, µM; 51,000 compounds, 1.2% hits; in the data active means potency below about 11 µM; inconclusive means mostly about 12 µM to 25 µM; inactive means weaker than that;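 the screen sought inhibitors and activators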;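 note: potency is the fitted concentration of half-maximal effect; scaled between full activation by ribose 5 phosphate and full inhibition by luteolin; about four in five hits inhibit and the cells do not say which; series up to 57 µM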
Active calls of the source: *; i = inactive; ? = inconclusive; / = not tested or not shown.

cpd | Structure | Bst PK mod | TsaE inh
1 | COc1ccc(S(=O)(=O)N2CCCC(C(=O)Nc3ccc(OC)c(OC)c3)C2)cc1 (stereo not drawn) | >57 | i
2 | CCOC(=O)N1CCN(S(=O)(=O)c2cccs2)CC1 | >57 | i
3 | O=C1C=C(O)CC(c2ccc(Cl)c(Cl)c2)C1 (stereo not drawn) | i | /
4 | CC(=O)Nc1ccc(NC(=O)c2c(C)nc3ccccn23)cc1 | >57 | i
5 | O=C(OCn1nnc2ccccc2c1=O)C1CCN(S(=O)(=O)c2cccs2)CC1 | >57 | i
6 | CCOc1ccc(-n2c(SCc3ccc(C(=O)OC)o3)nc3c(c2=O)SCC3)cc1 | >57 | i
7 | N#Cc1cccc(NC(=O)N2CCCC3(CCN(C(=O)c4csnn4)CC3)C2)c1 | / | i
8 | CCN(CC)c1ccc(NC(=O)c2[nH]c(C)c(C(C)=O)c2C)c(C)c1 | >57 | i
9 | Cc1ccc(S(=O)(=O)c2c(N)n(CCN3CCOCC3)c3nc4ccccc4nc23)cc1C | >57 | i
10 | CCC(=O)N1CCc2cc(S(=O)(=O)NCCCOC)ccc21 | >57 | i
11 | CCCC(c1nnnn1CCC(C)C)N1CCC(C(N)=O)CC1 (stereo not drawn) | >57 | i
12 | Cn1c(=O)c2c(nc(CN3CCN(C(=O)c4ccco4)CC3)n2CCCc2ccccc2)n(C)c1=O | / | i

(listing goes on)
cpd | Structure | Bst PK mod | TsaE inh
13 | CC1(CCc2ccccc2)NC(=O)N(Cc2nnc(-c3ccccc3Br)o2)C1=O (stereo not drawn) | >57 | i
14 | COC(=O)c1ccc(C)c(NS(=O)(=O)c2ccc(OC)cc2)c1 | / | i
15 | CC(=O)Nc1ccc(N/C=C/C(=O)c2ccco2)cc1 | i | i
16 | COc1ccc(C2=NOC(C(=O)Nc3c(C)n(C)n(-c4ccccc4)c3=O)C2)cc1OC (stereo not drawn) | / | i
17 | O=C(O)CCCCCn1c(SCC(=O)N2CCCC2)nc2ccsc2c1=O | >57 | i
18 | COc1ccc(-c2cn3c(C)c(C(=O)Nc4cccc(C)n4)sc3n2)cc1 | / | i
19 | Cc1cccc(NCc2nc(SCC(N)=O)n[nH]2)c1 | >57 | i
20 | CC(=O)N1CCC2(CC1)C(C#N)=C(N)Oc1n[nH]c(C)c12 | >57 | i
21 | O=C1CCc2cc(S(=O)(=O)N3CCC(C(=O)NCCC4=CCCCC4)CC3)ccc2N1 | / | i
22 | O=C(CCCN1C(=O)c2ccccc2C1=O)NCCC1=CCCCC1 | >57 | i
23 | CN1CCN(CC#CC(C)(O)C2CC3C=CC2C3)CC1 (stereo not drawn) | >57 | i
24 | CCOC(=O)c1cccc(NC(=O)CSc2nnc(CNc3ccc(C)cc3)n2CC)c1 | >57 | i

Later entries.
cpd | Structure | Bst PK mod | TsaE inh
25 | O=C(NCCCN1CCC(Cc2ccccc2)CC1)C1CCN(S(=O)(=O)N2CCOCC2)CC1 | >57 | i
26 | CN(c1ccccc1C(=O)O)S(=O)(=O)c1ccc2c3c(cccc13)C(=O)N2 | >57 | i
27 | COc1cc(C(=O)NCCC(=O)NCCCN2CCCCC2)cc(OC)c1OC | >57 | i
28 | COCc1nc2ccccc2n1CCOc1ccccc1OC | >57 | i
29 | O=C(COC(=O)c1cc(-c2ccco2)nc2ccccc12)NCc1ccc2c(c1)OCO2 | >57 | i
30 | Oc1cccc(Nc2nc(NCC3CCCO3)c3ccccc3n2)c1 (stereo not drawn) | / | i
31 | CCC(c1nnc(SCC(=O)NCCc2ccc(Cl)cc2Cl)o1)N(C)C (stereo not drawn) | >57 | i
32 | CCOC(=O)CC(=O)Nc1nnc(C(C)C)s1 | >57 | i
33 | Cc1ccccc1N1C(=O)C2ON(c3ccccc3)C(c3cccnc3)C2C1=O (stereo not drawn) | >25.6 | /
34 | O=C(NC1CCCCC1NC(=O)c1cccs1)c1cccs1 (stereo not drawn) | >57 | i
35 | CC(C)C(=O)N1CCC(CN=Cc2c(O)n(C3CCCCC3)c(=O)n(C3CCCCC3)c2=O)CC1 | / | i
36 | COc1cc2[nH]c(=O)n(CCC(=O)N3CCN(c4cccc(C)c4C)CC3)c(=O)c2cc1OC | >57 | i

Next compounds:
cpd | Structure | Bst PK mod | TsaE inh
37 | CCN(CC)CCN1C(=O)C(=O)/C(=C(/O)c2c(C)[nH]c(C(=O)OC)c2C)C1c1ccco1 (stereo not drawn) | >25.6 | /
38 | Nn1c(SCc2nc3ccccc3[nH]2)nnc1-c1cccnc1 | / | i
39 | CCOC(=O)c1ccccc1NC(=O)CN1CCC(n2nnc3cc(F)ccc32)CC1 | >57 | i
40 | CCCCn1c2nc3ccccc3nc2c2c(=O)n(CCC)cnc21 | >57 | i
41 | CN(C)Cc1ccccc1-c1cncnc1Nc1ccncc1 | / | i
42 | O=C(Oc1ccccc1)N1CCC[C@@]2(CCN(c3ccncc3)C2)C1 | / | i
43 | Cc1nc(-c2ccccc2)nc2[nH]c(C(C)C)cc(=O)c12 | >57 | i
44 | CCSCc1nnc(SCC(=O)Nc2cccc(SC)c2)n1C | >57 | i
45 | Cc1onc(-c2ccccc2)c1C(=O)n1nnc2ccccc21 | >57 | i
46 | CC1(C)CC(=O)c2cnc(N3CCN(c4ccccc4)CC3)nc2C1 | >57 | i
47 | CCOc1ccc(N2C(=O)CSC23CCCCC3)cc1 | >57 | i
48 | N#CC1=C(N)N(c2ccc(Oc3ccccc3)cc2)C(=O)C1 | >57 | i

Further structures:
cpd | Structure | Bst PK mod | TsaE inh
49 | O=C(CSc1nnc(Cc2cccs2)n1C1CCCCC1)N1CCCc2ccccc21 | >57 | i
50 | CCc1ccc(OCCCC(=O)O)c(Br)c1 | >57 | i
51 | O=C(Nc1ccccc1C(=O)NCc1ccco1)NC1CCCCC1 | >57 | i
52 | CCSc1nnc(NC(=O)CN(C)S(=O)(=O)c2ccc(F)cc2)s1 | >57 | i
53 | CC(C)(C)C(=O)CC(=O)Nc1ccc(Cl)c(N)c1 | / | i
54 | CCOC(=O)C(NC(=O)c1cccnc1)(Nc1cccc(C)n1)C(F)(F)F (stereo not drawn) | >57 | i
55 | COc1ccc(CNC(=O)C2CC(=O)N(c3ccc(OCC(=O)N4CCCCC4)cc3)C2)cc1 (stereo not drawn) | >57 | i
56 | COc1ccccc1C(=O)N1CCN(c2cccc(C(F)(F)F)c2)CC1 | >57 | i
57 | CC[C@@H]1OC(=O)[C@H](C)[C@H](O[C@@H]2C[C@](C)(OC)[C@H](O)[C@H](C)O2)[C@H](C)[C@H](O[C@@H]2O[C@@H](C)C[C@@H](N(C)C)[C@@H]2O)[C@](C)(O)C[C@H](C)C(=O)[C@H](C)[C@H](O)[C@]1(C)O | / | i
58 | O=C(NCCN1C(=O)CSC1=O)c1ccccc1 | >57 | i
59 | Cc1cc(NC(=O)CSc2nc3sc4c(c3c(=O)n2C)CCCC4)no1 | >57 | i
60 | c1ccc(-c2nnc(Cn3c4ccccc4c4nc5ccccc5nc43)o2)cc1 | >57 | i

(listing goes on)
cpd | Structure | Bst PK mod | TsaE inh
61 | CC(=Nc1ccccc1)Nc1ccccc1 | / | i
62 | Cc1cc2ccccc2c(=O)n1CC(=O)Nc1ccc2c(c1)OCO2 | >57 | i
63 | COC(=O)[C@H](Cc1ccccc1)NC(=O)N1CC(C)OC(C)C1 (stereo partly drawn) | >57 | i
64 | CCN(C(=O)c1coc(=O)c2ccccc12)c1cc(OC)ccc1OC | >57 | i
65 | Cc1cccc(-c2noc(CCc3ccccc3)n2)c1 | / | i
66 | Cc1cc(-c2ccccc2C(=O)NCc2ccccc2)on1 | >57 | i
67 | CC(=O)[C@@H](C)CCO[C@@]1(C)OCC[C@@H]1C | / | i
68 | CCNC(=O)CC1SC(=Nc2ccccc2C)N(C)C1=O (stereo not drawn) | >57 | i
69 | CCN(CC)C(=O)Oc1ccc2c(=O)c(-c3ccc(OC)cc3)coc2c1 | >57 | i
70 | Cc1cc(=O)oc2cc(NC(=O)C3COc4ccccc4O3)ccc12 (stereo not drawn) | >57 | i
71 | COc1ccc(NC(=O)C2CCCCN2S(=O)(=O)c2ccc(F)cc2)cc1 (stereo not drawn) | / | i
72 | Cc1ccc2[nH]c(=O)c(CN(Cc3cccs3)Cc3nnnn3CC3CCCO3)cc2c1 (stereo not drawn) | >57 | i

(continued)
cpd | Structure | Bst PK mod | TsaE inh
73 | Cc1nnc(SCCn2c(N3CCC(C)CC3)nc3c2c(=O)n(C)c(=O)n3C)s1 | >57 | i
74 | CCN(CC)S(=O)(=O)c1cccc(C(=O)Nc2ccc(Cl)cn2)c1 | >57 | i
75 | CCCc1cc(-c2[nH]ncc2-c2ccc3c(c2)OCCCO3)c(O)cc1O | >57 | i
76 | Cc1n[nH]c(=O)nc1NCc1ccccc1Cl | >57 | i
77 | CCC(=O)NCCc1cc2cc(C)c(C)cc2[nH]c1=O | >57 | i
78 | COc1ccc(-c2n[nH]c(C(F)(F)F)c2-c2cc3ccccc3o2)c(O)c1 | >57 | i
79 | COCCN(CCOC)C(=O)C12CCC(C)(C(=O)C1)C2(C)C (stereo not drawn) | >25.6 | /
80 | COc1ccc(N2CCN(Cc3cc(=O)oc4ccc(Cl)cc34)CC2)cc1 | >57 | i
81 | Cc1ccccc1CSc1nc2c(c(=O)[nH]1)CCC2 | >57 | i
82 | Clc1ccc(-n2ncc3c(N4CCCC4)ncnc32)cc1 | i | /
83 | CN1CCN(CCCNC(=O)c2ccc(CS(=O)(=O)c3ccc(Br)cc3)o2)CC1 | / | i
84 | O=C(CCn1c(=O)oc2ccccc21)Nc1cccc(Cl)c1 | / | i

Full records as entered above:
Shown for `O=C(CCn1c(=O)oc2ccccc21)Nc1cccc(Cl)c1` → Bst PK mod: /; TsaE inh: i
Shown for `CCC(=O)NCCc1cc2cc(C)c(C)cc2[nH]c1=O` → Bst PK mod: >57; TsaE inh: i
Shown for `Cc1ccccc1CSc1nc2c(c(=O)[nH]1)CCC2` → Bst PK mod: >57; TsaE inh: i

The results go on:
cpd | Structure | Bst PK mod | TsaE inh
85 | CCOC(=O)CNc1nc(OCC#N)nc(N2CCOCC2)n1 | >57 | i
86 | CCCc1cc(=O)[nH]c(SCC)n1 | >57 | i
87 | CCN(CC)S(=O)(=O)c1ccc(-c2nnc(SCC(=O)N3c4ccccc4CC3C)o2)cc1 (stereo not drawn) | >57 | i
88 | COc1ccc(OC(=O)c2cc3ccccc3o2)cc1 | ? | /
89 | O=C(COC(=O)c1cccs1)NCC1CCCO1 (stereo not drawn) | >57 | i
90 | COc1ccc(NC(=O)C2CCCN(S(=O)(=O)c3c(C)n[nH]c3C)C2)c(OC)c1 (stereo not drawn) | >57 | i
91 | C=CCn1c(-c2cccc(Cl)c2)n[nH]c1=S | / | i
92 | COCCN(CCOC)C(=O)c1sc2nc(-c3ccccc3)cn2c1C | >57 | i
93 | Cc1cc(C)n(-c2nnc(C)n2NS(=O)(=O)c2ccc(F)cc2)n1 | >57 | i
94 | CCOC(=O)C1(CCSC)NC(c2ccco2)C2C(=O)N(C)C(=O)C21 (stereo not drawn) | >57 | i
95 | Cc1cccc(N(CC(=O)Nc2c(C)n(C)n(-c3ccccc3)c2=O)S(C)(=O)=O)c1C | / | i
96 | CCOC(=O)c1sc(NC(=O)c2cccs2)cc1C | / | i

Next results.
cpd | Structure | Bst PK mod | TsaE inh
97 | O=C(NCC(c1cccs1)N1CCOCC1)c1ccc(Cl)s1 (stereo not drawn) | >57 | i
98 | Cc1cc(C)cc(OCC(=O)NCCN2CCOCC2)c1 | >57 | i
99 | Cc1ccc(NC(=O)COC(=O)Cn2c(C)csc2=O)cc1 | >57 | i
100 | Cc1cc(NC(=O)CSc2nc(C3CCCCC3)nc3ccccc23)no1 | >57 | i
101 | Cc1cccc(-n2c(O)c(C=Nc3c(C)n(C)n(-c4ccccc4)c3=O)c3ccccc3c2=O)n1 | >57 | i
102 | CCCCOC(=O)n1ccc(C(=O)Nc2ccccc2OC)n1 | >57 | i
103 | CCCC1(C(=O)O)NC(c2ccccc2O)C2C(=O)N(Cc3ccccc3)C(=O)C21 (stereo not drawn) | / | i
104 | CC1(C)S[C@@H]2[C@H](NC(=O)[C@H](C(=O)O)c3ccsc3)C(=O)N2[C@H]1C(=O)O | >25.6 | i
105 | Cc1ccc(S(=O)(=O)C2(C(=O)N3CCCC(C)C3)CC2)cc1 (stereo not drawn) | >57 | i
106 | Cc1cc(C)nc(/N=C2\NC(=O)CC(C(=O)O)N2CCc2c[nH]c3ccccc23)n1 (stereo not drawn) | / | i
107 | O=C(CCCn1c(=O)oc2ccccc21)N1CCc2ccccc2C1 | >57 | i
108 | CCOC(=O)c1ccc(N2C(=O)C(O)=C(C(C)=O)C2c2ccc(O)c(OC)c2)cc1 (stereo not drawn) | >57 | i

Next part:
cpd | Structure | Bst PK mod | TsaE inh
109 | CCc1cccc2c3c([nH]c12)[C@@](CC)(CC(=O)O)OCC3 | / | i
110 | COCCc1nnc(NC(=O)Cc2ccccc2)s1 | >57 | i
111 | CCSc1nnc(Cn2c(=O)sc3ccccc32)n1-c1ccc(OC)cc1 | / | i
112 | [N-]=[N+]=N[C@@H]1[C@H](O)[C@H](CO)O[C@@H]1n1cnc2c(N)ncnc21 | / | i
113 | Cc1cn(COC/C=C/c2ccccc2)c(=O)[nH]c1=O | >57 | i
114 | COc1cc2c(cc1NC(=O)CCCN1C(=O)CCC1=O)oc1ccccc12 | i | i
115 | CCC(C)NC(=O)CC(NS(=O)(=O)c1ccc(Cl)cc1)c1ccco1 (stereo not drawn) | >11.4 | i
116 | CN(C)c1ccc(C2OC(=O)C3(CCCC3)C(=O)C2(C)C)cc1 (stereo not drawn) | >57 | i
117 | C=CCn1c(N2CCCCCC2)nc2c1c(=O)n(C)c(=O)n2C | >57 | i
118 | CN(C)CCC(c1ccccc1)c1ccccn1 (stereo not drawn) | / | i
119 | O=C(O)c1cc(-c2ccccn2)n[nH]1 | >57 | i

Screens: PubChem, National Center for Advancing Translational Sciences (NCATS)

This is a subset (hit frequency here may not be typical).
